# Bioassay records as filed in PubChem BioAssay.
# HSD17B inhib: qHTS Assay for Inhibitors of HSD17B4, hydroxysteroid (17-beta) dehydrogenase 4; 3-hydroxyacyl-CoA dehydrogenase type-2 (Homo sapiens), Q99714; recombinant HSD17B10, NADH fluorescence kinetic; many of its hits are not listed in these tables; Potency, µM (top dose mostly 57.1 µM), inactives show top-dose activity change, negative = inhibition, actives largely listed as inhibitors; actives 7.6% (n = 75,000); AID 893, 2007; active means well fitted inhibition curve with a large enough effect; inconclusive means small, poorly fitted or top-dose-only effect; inactive means no such curve, though single readings can be large or run the other way;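 further: the protocol describes HADH2 (HSD17B10) and not the HSD17B4 of the title; nearly all actives have a fitted effect of over 70% in size; most hits overshoot -100% by far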
#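 His-tagged E. coli-expressed HADH2 at 20 nM in 100 mM Tris-HCl pH 9.0 with 0.01 % Tween-20, preincubated 15 min with compound at room temperature. Reaction with 1 mM NAD+ and 90 uM beta-hydroxybutyryl coenzyme A; NADH fluorescence (360/450 nm) read kinetically over 4 min, last minus first point.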
# * hit, by the source's call; ? = inconclusive; [ ] = another dose, or the depositor's remark. On the % scale 0 is the no-effect control and ±100 the full control effect; potency means the concentration at half of the fitted maximal effect. Not all compounds are listed, so the mix of outcomes need not match the whole.
SMILES	HSD17B inhib
CCN(CC)CCCCC1CCN(CC(=O)N2c3ccccc3C(=O)Nc3cccnc32)CC1	1%
Cc1c(C(=O)N2CC(C)OC(C)C2)oc2ccccc12 (stereo unspecified)	3%
CNC(=O)c1cc2cc(OC)ccc2n1CCN(C)C	?
O=C(NC1CC2CCC(C1)N2C(=O)NCc1ccccc1)C1CC1 (stereo unspecified)	-4%
Cc1ccc(C)c(N2CCN(C(c3ccncc3)c3nnnn3Cc3ccccc3)CC2)c1 (stereo unspecified)	-10%
C=CCNC(=O)CN(c1cccc(Br)c1)S(C)(=O)=O	0%
NC(=O)NC(Cc1ccccc1)C(=O)O (stereo unspecified)	1%
CCOc1ccc(OCC)c(NC(=O)CN2CCN(c3ccc(C)cc3C)CC2)c1	-12%
COc1ccccc1NC(=O)COC(=O)c1ccc(S(=O)(=O)NCc2ccco2)cc1	-5%
CC1(C)CC(=O)C=C(NCCN2CCN(C(=O)Nc3ccc(Cl)c(Cl)c3)CC2)C1	3%
O=C(CCS(=O)(=O)c1cccc2nonc12)Nc1cccc2c1CCCC2	-6%
O=C(C1CCN(S(=O)(=O)N2CCOCC2)CC1)N1CCc2ccccc21	4%
Cc1ccc(-c2noc(CN3CCN(Cc4ccccc4)CC3)n2)cc1	5%
O=CNc1ccccc1	-7%
CCc1c(C)nc2cc(-c3cccs3)[nH]n2c1=O	32µM*
Cc1cc(C)n(C(=O)CNC(=O)COc2ccccc2)n1	14%
COCCNc1nc(SCC(=O)N2CCN(c3ccccc3OC)CC2)nc2ccccc12	-5%
CC1C(=O)C(C)C(c2ccco2)NC1c1ccco1 (stereo unspecified)	15%
CC(C)(C)C1CCc2[nH]nc(C(=O)O)c2C1 (stereo unspecified)	3%
COc1ncc2nc(CCc3ccccc3)c(=O)n(Cc3ccc(F)cc3)c2n1	3%
Cc1c(C(=O)OC2CCCC2C)[nH]c2c1C(=O)CCC2 (stereo unspecified)	2%
COCCNC(=O)CSc1nc2ccccc2c(=O)n1CCCC(=O)NCc1ccccc1	5%
CSc1nnc(C2CCCN2)n1C (stereo unspecified)	9%
Cc1occc1-c1nnc(SCC(=O)NC(=O)NC(C)C)n1N	10%
COc1cc(OC)cc(C(=O)NC2CCSC2=O)c1 (stereo unspecified)	-2%
O=C(CC1SC2=NCCN2C1=O)Nc1ccc(Br)cc1 (stereo unspecified)	0%
CCN1CCN(Cc2nc3c(c(=O)n(C)c(=O)n3C)n2CC(=O)c2ccccc2)CC1	25µM*
COc1ccccc1-c1nccc(NCc2ccccc2)n1	3%
CCc1c(C)nc(/N=C(/NC(=O)c2ccccc2)Nc2ccccc2OC)[nH]c1=O	9%
Cn1c(C(=O)NCc2ccccn2)cc2c(=O)n(C)c3ccccc3c21	25µM*
COc1ccc(S(=O)(=O)N2CCN(Cc3ccc4c(c3)OCO4)CC2)c2ccccc12	-13%
COc1ccc(OC)c(C2=NOC(C(=O)Nc3cccnc3)C2)c1 (stereo unspecified)	-22%
CCOC(=O)c1ccccc1NC1c2ccccc2C(=O)N1C1CCN(C(=O)OCC)CC1 (stereo unspecified)	32µM*
CCOC(=O)C1=C(O)C(=O)N(c2ccc(S(N)(=O)=O)cc2)C1c1ccc(OC)cc1OC (stereo unspecified)	3%
O=C(O)CCc1ccc(-c2cccs2)n1NC(=O)c1ccco1	-10%
CCN(CC)S(=O)(=O)c1ccc(F)c(C(=O)NCCCN2CCOCC2)c1	1%
CC(=O)Nc1ccc(S(=O)(=O)NCc2ccc(C(=O)NCCN3CCCCCC3)cc2)cc1	2%
COc1ccc(-c2nc3cnc(Nc4ccccc4)nc3n(C[C@H]3CCCO3)c2=O)cc1	?
COc1ccc2[nH]cc(CCNc3cc(-c4ccccc4Cl)ncn3)c2c1	-11%
CC(C)(C)n1nnnc1C(c1ccccc1F)N(Cc1ccco1)CC1CCCO1 (stereo unspecified)	-2%
O=C(c1ccccc1)c1coc2ccc(O)c(Cl)c12	?
CC12CCC(C(=O)N3CCN(c4ncccn4)CC3)(c3nc4ccccc4nc31)C2(C)C (stereo unspecified)	5%
Cc1ccccc1-c1nc(Nc2ccncc2)c2ccccc2n1	?
N[C@H](Cc1c[nH]c2ccccc12)C(=O)O	5%
O=S1(=O)CCN2C(=N1)SC1=C2CCN(Cc2ccccc2)C1	5%
C=CCc1cccc2cc(NC(C)=O)c(=O)oc12	?
CC(C)c1nc2cc3ccccc3cc2[nH]1	?
CO/N=C\C[C@@H]1C=C[C@H](OC(C)=O)[C@H](COC(C)=O)O1	-1%[11.4 µM]
COc1ccc(NC(=O)C2CCCN(S(=O)(=O)c3cccc4cccnc34)C2)cc1OC (stereo unspecified)	1%
N#CCCN(C1CCCCC1)S(=O)(=O)CCOc1ccccc1	3%

# More compounds:
SMILES	HSD17B inhib
COc1ccc(N(C(=O)COc2ccccc2)C2C=CS(=O)(=O)C2)c(OC)c1 (stereo unspecified)	7%
C[C@H](NC(=O)C1(c2ccccc2)CCN(C(=O)[C@H]2CSCN2C(=O)OC(C)(C)C)CC1)C(=O)O	-6%
O=S(=O)(CC(CN1CCCC1)N1CCCC1)c1ccc2ccccc2c1 (stereo unspecified)	?
CCOC(=O)c1c(NC(C)=O)sc2c1CCCNC2=O	4%
C1CCOC1	1%
COC(=O)CSc1nc2ccccc2n1CC(=O)N(C(C)C)C(C)C	-2%
C=CCN(C(=O)CNC(=O)c1ccco1)C(C(=O)NC1CCCCC1)c1ccc(OC)cc1OC (stereo unspecified)	5%
CC1(C(=O)Nc2nccs2)Cc2ccccc2C(=O)O1 (stereo unspecified)	6%
CCOC(=O)C1=C(C)OC(N)=C(C#N)C1c1c(C)nn(-c2ccc(C)cc2)c1Cl (stereo unspecified)	6%
COc1ccc(-c2c(O)c3c(OC)c4c(cc3oc2=O)OC(C)(C)C=C4)cc1	?
Cn1cc(C(=O)NC2CCCCCCC2)c(=O)c2cc(S(=O)(=O)N3CCCC3)ccc21	-9%
COc1ccc(N2C(=O)C(Cl)=C(N3CCN(Cc4ccccc4)CC3)C2=O)cc1	-1%
CCOC(=O)/C=C1\SCC(=O)N1CCOc1cccc(Br)c1	-22%
COCCNC(=O)Cc1ccc(Br)cc1	1%
CCCN1C2CCCC1CC(NC(=O)Nc1cccc(C(C)=O)c1)C2 (stereo unspecified)	2%
CCCCOc1ccc(-c2nnn(CC(=O)NCc3ccco3)n2)cc1	-9%
CSCC[C@H](NC(=O)OC(C)(C)C)c1nnc(SCC(N)=O)o1	?
O=C(CSc1nnnn1C1CCCC1)N1CCCc2ccccc21	-8%
O=C(Nc1ccc2c(c1)OCO2)c1cc2ncc(Br)cn2n1	?
O=C(NCc1ccco1)C(NS(=O)(=O)c1cccc2nsnc12)c1ccccc1 (stereo unspecified)	-2%
COC(=O)C1=C(C)Nc2nc(-c3ccccc3)nn2C1c1ccc(C)o1 (stereo unspecified)	0%
COc1ccc(-c2coc3cc(O)ccc3c2=O)c(O)c1O	16µM*
Cc1cccc(NC(=O)CSc2nnc(CSc3nc(C)cc(C)n3)o2)c1	3%
Cc1ccc(C(=O)N(CN2CCCC2=O)c2ccc(F)cc2)cc1C	-3%
O=C(NCc1cccnc1)c1cc(-c2ccco2)on1	-13%

# Next part; the last six above are carried over.
SMILES	HSD17B inhib
O=C(NCc1ccco1)C(NS(=O)(=O)c1cccc2nsnc12)c1ccccc1 (stereo unspecified)	-2%
COC(=O)C1=C(C)Nc2nc(-c3ccccc3)nn2C1c1ccc(C)o1 (stereo unspecified)	0%
COc1ccc(-c2coc3cc(O)ccc3c2=O)c(O)c1O	16µM*
Cc1cccc(NC(=O)CSc2nnc(CSc3nc(C)cc(C)n3)o2)c1	3%
Cc1ccc(C(=O)N(CN2CCCC2=O)c2ccc(F)cc2)cc1C	-3%
O=C(NCc1cccnc1)c1cc(-c2ccco2)on1	-13%
Cc1cc(NC(=O)c2cc3nc4c(c(C(F)(F)F)n3n2)CCc2ccccc2-4)no1	-22%
COc1ccccc1-c1noc(CCC(=O)Nc2cccc(C(F)(F)F)c2)n1	-5%
Cc1csc(NC(=O)CNS(=O)(=O)c2cccs2)n1	-6%
Cc1ccc(C)c2[nH]c(=O)c(CCNC(=O)c3ccc4c(c3)OCO4)cc12	-8%
COCCCNC(=O)c1ccc(CS(=O)(=O)c2ccc(OC)cc2)o1	10%
CCC(=O)N1CCc2cc(Br)cc(S(=O)(=O)CCC(=O)NCc3ccco3)c21	2%
COC(=O)Nc1ccc(Oc2ccccc2)cc1	5%
Cc1cn(CC[C@H](N)C(=O)O)c(=O)[nH]c1=O	5%[11.4 µM]
COc1ccc(C2CC(c3ccc(F)cc3)Nc3nc(N)nn32)cc1OC (stereo unspecified)	6%
Cc1nn2c3c(cnc2c1-c1ccccc1)C(=O)CC(c1ccco1)C3 (stereo unspecified)	9%
O=C(Nc1cnn(C23CC4CC(CC(C4)C2)C3)c1)c1cnn2cccnc12	2%
COC(=O)[C@@]1(Cc2ccc(F)cc2)[C@H]2c3cc(C(=O)N4CCCC4)n(Cc4c(CO)[nH]cc(C)c4=O)c3C[C@H]2CN1C(=O)c1ccccc1	2%
O=C(Nn1cnc2ccccc2c1=O)c1ccccc1Cl	1%
CCOc1ccc(S(=O)(=O)N2CCN(C)CC2)c(C)c1C	12%
Cc1ccc(C)c(NC(=O)CSc2nnc(-c3ccccc3C)o2)c1	8%
N#Cc1cccc(-c2nccc(NCc3cccs3)n2)c1	0%
O=C(C1CC1)N(CCc1ccccc1)Cc1nc2ccccc2c(=O)[nH]1	2%
CCC1C2CN(C(C)=O)CC=C2C(C#N)=C(N)C1(C#N)C#N (stereo unspecified)	125%[activator]
Cc1ccc(NC(=O)c2ccco2)c(NC(=O)CN2C(=O)c3ccccc3C2=O)c1	0%
Fc1cccc(-c2cc3nc4c(c(N5CCN(c6cnccn6)CC5)n3n2)CCCC4)c1	-2%
CCCC(C(=O)NCc1ccco1)N(C(=O)CNS(=O)(=O)c1ccccc1)C1CCCC1 (stereo unspecified)	4%
CCCCCC(=O)Nc1ccccc1N1CCN(c2ccccc2)CC1	10%
CS(=O)(=O)NCc1nnc(SCC(=O)NC2CCCCC2)n1-c1ccc(F)cc1	4%
O=C1c2cccnc2C(=O)N1CO	4%
C[C@@H](C(=O)NCCF)[C@H]1C[C@]1(C)[C@H](NC(=O)OCc1ccccc1)c1ccccc1	-5%
c1ccc(CCNc2ncnc3c2cnn3-c2ccccc2)cc1	-3%
COc1cc2nc(-c3cccs3)oc(=O)c2cc1OC	?
CCN1CCCC1CNC1=NCCCCC1 (stereo unspecified)	2%
Cc1nnc(NC(=O)CSc2nnc(CNC(=O)c3ccccc3)n2-c2ccccc2)s1	14%
CCC(CC)C(=O)NCCc1ccc(S(N)(=O)=O)cc1	-1%
CCC(Sc1ccc(C(=O)O)cc1)C(=O)O (stereo unspecified)	-2%
CCC(C)NC(=O)CC(c1ccc(OC)cc1)n1cccc1 (stereo unspecified)	3%
Cc1noc(NS(=O)(=O)c2ccc(NC(=O)CSc3nc4c(cc3C#N)CCCC4)cc2)c1C	22%
Cc1cc(C)c2[nH]c(=O)c(CN(C(=O)C3CCCO3)C3CCCC3)cc2c1 (stereo unspecified)	3%
O=C1NC(c2ccccc2)C(C(=O)c2cccs2)=C1O (stereo unspecified)	11%
Cc1ccccc1-c1nnc(SCc2ccc(F)cc2)o1	-10%
CCOc1cc(CNCC2CCCO2)cc(Br)c1OCC(N)=O (stereo unspecified)	8%
O=C(c1ccccc1)N1CCN(c2ccc(NCc3ccc4c(c3)OCO4)cc2)CC1	-5%
Cc1ccc(C)c(Cn2c(=O)n(CCCC(=O)NCc3ccco3)c(=O)c3ccccc32)c1	6%
O=c1oc2ccccc2n1Cn1c(=O)oc2ccccc21	11%
O=C(NCCc1ccccc1)c1noc2c1CCc1ccccc1-2	-5%
CN1C[C@@H]2C(c3ccc(C(F)(F)F)cc3)C3(c4ccccc4)CC2(C3)[C@H]1c1ccccc1 (stereo partly specified)	-2%
CCC(=O)Nc1ccc(-c2nn3c(C)nnc3s2)cc1	?
Cc1ccc(S(=O)(=O)NCCn2c(C)cc3ccccc32)cc1	-9%
O=C1NCCCc2nc(Oc3ccccc3)sc21	18%
O=C1C[C@H]2OCC=C3CN4CC[C@@]5(C(=O)O)[C@H](N1)[C@H]2[C@H]3C[C@H]45	1%[11.4 µM]
Cc1c(NC(=O)CC(O)(C(F)(F)F)C(F)(F)F)c(=O)n(-c2ccccc2)n1C	0%
O=C(O)c1ccc(COc2ccc(CO)cc2Cl)cc1	1%
Cc1cc(O)c(C(C)(C)C)cc1Sc1cc(C(C)(C)C)c(O)cc1C	-5%
CC(=O)Nc1ccc(S(=O)(=O)Nc2cccc(N(C)S(C)(=O)=O)c2)cc1	-14%
CC(C(=O)OCn1nnc2ccccc2c1=O)N1C(=O)c2ccccc2C1=O (stereo unspecified)	4%
COCNc1nc(OCC#N)nc(N(C)C)n1	0%
